VDR inhibitor: inhibitors of human vitamin D receptor; VDR-SRC2-3 peptide fluorescence polarization, 2 h; Potency, µM, for the others: max response, negative = inhibition, most hits filed as inhibitors; actives 0.93% (n = 400,000); active means well fitted inhibition curve with a large enough effect; inconclusive means small, poorly fitted or top-dose-only effect, or another doubt; inactive means no such curve, though single readings can be large or run the other way; further: series mostly up to about 120 µM
Target sequence (P11473 whole entry, looked up): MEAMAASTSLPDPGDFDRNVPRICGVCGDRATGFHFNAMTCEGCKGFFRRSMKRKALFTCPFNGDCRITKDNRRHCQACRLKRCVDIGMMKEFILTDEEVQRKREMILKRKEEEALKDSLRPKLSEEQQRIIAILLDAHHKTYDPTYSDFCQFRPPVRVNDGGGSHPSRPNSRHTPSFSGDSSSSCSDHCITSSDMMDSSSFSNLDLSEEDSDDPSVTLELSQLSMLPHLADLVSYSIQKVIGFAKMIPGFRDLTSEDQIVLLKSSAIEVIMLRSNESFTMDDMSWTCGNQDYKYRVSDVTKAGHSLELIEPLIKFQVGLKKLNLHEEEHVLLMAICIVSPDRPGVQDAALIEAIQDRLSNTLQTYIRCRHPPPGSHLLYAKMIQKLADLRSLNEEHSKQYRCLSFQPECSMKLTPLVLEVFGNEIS
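Compounds are added to VDR with labelled SRC2-3 coactivator peptide and held 2 h at room temperature. Inhibition of the VDR–peptide interaction is then read as a change in fluorescence polarization.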
Numbers without * were called inactive; ? = inconclusive; & = joins results of further samples; [ ] = dose if it differs, or a comment. On the % scale 0 is the no-effect control and ±100 the full control effect; potency means the concentration at half of the fitted maximal effect.

canonical_smiles,VDR inhibitor
CCN(C(=O)Cn1cnc2c1c(=O)n(C)c(=O)n2C)c1ccccc1C,-0.7%
COc1ccc2c(c1)CC(C(=O)Nc1cccc(C)c1C)CO2 (centres undefined),5.6%
Cn1cccc1C(=O)Nc1nc(-c2ccccn2)cs1,-22.9%
O=C(COC(=O)c1cccc([N+](=O)[O-])c1)Nc1ncc(Br)s1,-1.0%
Cc1ccc(-c2ccc(C3C4C=CCC(C)C4C(=O)N3Cc3ccccc3)c(F)c2)cc1 (centres undefined),-9.4%
CCOC(=O)c1c(S(=O)(=O)NCC(=O)Nc2cccc(F)c2)c(C)n(C)c1C,23.8%
NS(=O)(=O)c1cccc(NC(=O)COC(=O)CN2C(=O)c3ccccc3C2=O)c1,-12.4%
CCC(Sc1nc2ccncc2[nH]1)C(=O)Nc1ccc(F)cc1 (centres undefined),5.6%
O=C(Nc1cccc(Cl)c1)c1cccnn1,-12.8%
CC(=O)C1=C(C)Nc2ncnn2C1c1ccc(Cl)cc1Cl (centres undefined),13.3%
COC(=O)c1ccccc1NC(=O)CSc1nnc(-c2ccoc2C)n1C,-0.1%
CCCCN1C(=O)C(NC(=O)C2CC2)(C(F)(F)F)C2=C1CC(C)(C)CC2=O (centres undefined),-4.9%
S=C1NC(c2ccccc2)=NCN1c1ccc(Br)cc1,6.6%
Cc1onc(-c2ccccc2)c1C(=O)N1CCN(S(=O)(=O)c2ccc(Cl)cc2)CC1,8.5%
CC(Sc1nnc(-c2ccco2)o1)C(=O)Nc1ccc(OC(F)F)cc1 (centres undefined),-14.2%
CSCCC(NC(=O)c1ccccc1Br)C(=O)Nc1ccc(C)cc1 (centres undefined),-12.7%
CCOC(=O)CSc1nc(=O)n2ccc(C)cc2n1,11.9%
CCCc1nc2c(c(=O)c3ccccc3n2C)c(=O)n1-c1ccc(F)cc1,-7.0%
Cc1ccccc1NC(=O)C1CCN(c2cnccn2)CC1,1.2%
Nc1nc(SCc2ccc([N+](=O)[O-])cc2)c2ncn([C@@H]3O[C@H](CO)[C@@H](O)[C@H]3O)c2n1,-15.4%&-1.2%
O=c1[nH]c(=S)[nH]c(O)c1/C=C1\C=Nc2ccccc21,-6.0%
O=C(CN1C(=O)S/C(=C\c2ccccc2)C1=O)NCCCn1ccnc1,-1.5%
O=C1C(=O)N(CCO)C(c2ccccc2)/C1=C(\O)c1ccccc1 (centres undefined),-9.2%
COc1ccc(-n2ncc(C(=O)N3CCN(Cc4ccccc4)CC3)c2C2CCN(C(=O)OC(C)(C)C)CC2)cc1,9.7%
Cc1c(CCC(=O)O)c(=O)oc2cc(OCc3cccc(F)c3)ccc12,15.5%
Cc1ccc2c(c1)[C@H]1[C@H](CO2)[C@H](c2ccccc2)[C@]2(C)C(=O)Nc3ccc(Cl)cc3C(=O)N12,-2.2%
O=c1cc(-c2ccccc2)nc(N2CCN(Cc3ccc4c(c3)OCO4)CC2)[nH]1,11.6%
OCCOCCn1c(C2CCCN2c2nc(-c3ccc(F)cc3)cs2)nc2cc(Cl)c(Cl)cc21 (centres undefined),5.5%
O=C(NCc1ccncc1)c1nc(-c2ccc(C(F)(F)F)cc2)no1,3.5%
O=C(CNC(=O)c1ccco1)Nc1ccc(S(=O)(=O)N2CCCC2)cc1,?
CCOc1cccc2sc(N(CCN(CC)CC)C(=O)c3cccc(N4C(=O)CCC4=O)c3)nc12,-24.6%
O=C(CCCN1C(=O)c2ccccc2C1=O)Nc1cccc(S(=O)(=O)NC2=NCCC2)c1,-22.2%
Cc1cc(OCc2cn(CC(=O)c3ccc(O)cc3)nn2)ccc1[N+](=O)[O-],-11.4%
CC(=O)c1ccc(NC(=O)CSc2nc3[nH]ncc3c(=O)[nH]2)cc1,8.1%
COc1cc(/C=N\NC(=O)C2COc3ccccc3O2)cc(OC)c1O (centres undefined),2.1%
CCN(CC)CCCNC(=O)c1cn(CC)c2ccc(S(=O)(=O)N3CCc4ccccc4C3)cc2c1=O,1.1%&5.7%
CN(C)C(CNC(=O)CCc1nc2cc(Cl)ccc2n(Cc2ccccc2)c1=O)c1ccccc1 (centres undefined),-14.7%
CC(=O)Nc1ccc(Oc2cncc(Cl)c2)nc1,-8.4%
CCCCn1c(N)c(N(CC(C)C)C(=O)C2CCN(S(=O)(=O)c3ccc(C)cc3C)CC2)c(=O)[nH]c1=O,-3.2%
Cc1cc(NC(=O)CN2CC(C)OC(C)C2)n(-c2nc3ccccc3s2)n1 (centres undefined),15.5%

Entries from the list above that contain fluorine:
canonical_smiles,VDR inhibitor
Cc1ccc(-c2ccc(C3C4C=CCC(C)C4C(=O)N3Cc3ccccc3)c(F)c2)cc1 (centres undefined),-9.4%
CCOC(=O)c1c(S(=O)(=O)NCC(=O)Nc2cccc(F)c2)c(C)n(C)c1C,23.8%
CCC(Sc1nc2ccncc2[nH]1)C(=O)Nc1ccc(F)cc1 (centres undefined),5.6%
CCCCN1C(=O)C(NC(=O)C2CC2)(C(F)(F)F)C2=C1CC(C)(C)CC2=O (centres undefined),-4.9%
CC(Sc1nnc(-c2ccco2)o1)C(=O)Nc1ccc(OC(F)F)cc1 (centres undefined),-14.2%
CCCc1nc2c(c(=O)c3ccccc3n2C)c(=O)n1-c1ccc(F)cc1,-7.0%
Cc1c(CCC(=O)O)c(=O)oc2cc(OCc3cccc(F)c3)ccc12,15.5%
OCCOCCn1c(C2CCCN2c2nc(-c3ccc(F)cc3)cs2)nc2cc(Cl)c(Cl)cc21 (centres undefined),5.5%
O=C(NCc1ccncc1)c1nc(-c2ccc(C(F)(F)F)cc2)no1,3.5%

Continuation:
canonical_smiles,VDR inhibitor
COc1ccc(CCNC(=O)c2ccc(NC(=O)CC3SC(N4CCCC4)=NC3=O)cc2)cc1 (centres undefined),-16.6%
CCCCn1c(N)c(N(CC(C)C)C(=O)c2ccc(S(=O)(=O)N3CCCCCC3)cc2)c(=O)[nH]c1=O,?
COc1ccc(OCCn2nnc3sc4c(c3c2=O)CCCC4)cc1,12.5%
COc1cccc(-c2nc(Oc3cccc(C)c3C)c3ccccc3n2)c1O,0.7%
CCC(=O)Nc1ccc(C(=O)CN2C(=O)NC3(CCCCCC3)C2=O)cc1,4.0%
COc1ccc(-c2csc(Cc3nc(O)cs3)n2)cc1,0.3%
COc1ccccc1Oc1ccc(S(=O)(=O)N2CCCCC2C)cc1 (centres undefined),-2.9%
COc1ccc(S(=O)(=O)N2CCCC(C(=O)NCc3ccccc3)C2)cc1 (centres undefined),21.3%
CC(C(=O)NCc1ccccc1Cl)N1C(=O)c2ccccc2C1=O (centres undefined),9.8%
COc1cccc(/C=N/n2c(-c3n[nH]c4c3CCC4)n[nH]c2=S)c1OC,17.3%
CCn1c(CC2C(=O)N(C)c3ccccc32)nc2ccccc2c1=O (centres undefined),10.0%
Cc1ccc(N2CC(C(=O)N3CCCCC3)CC2=O)cc1C (centres undefined),18.8%
COC(=O)c1ccccc1NC(=O)C1CC(=O)N(C2CCCCC2)C1 (centres undefined),7.4%
O=C1CC(c2ccncc2)c2cc3c(cc2N1)OCCO3 (centres undefined),9.7%
NC(N)=NS(=O)(=O)c1ccc(N/C=C\C(=O)c2ccncc2)cc1,8.5%
COCCCNC(=O)c1sc2ncn(CC(=O)Nc3ccc(C)c(Cl)c3)c(=O)c2c1C,6.2%
COC(CNC(=O)c1ccc2c(c1)ncn2-c1ccc(F)cc1F)OC,-0.3%
Cc1ccccc1C(=O)Nc1cccc(C#N)c1,-7.1%
COc1cccc(NC(=O)CN(C)C(=O)c2cc(C)oc2C)c1,1.9%
Clc1ccc(SCCOCCN2CCCCC2)cc1,-12.7%
CC(=O)N1CCc2cc(Br)cc(S(=O)(=O)CCC(=O)NCCc3ccc(Cl)cc3)c21,3.3%
CC(=O)c1ccc(NC(=O)CN2C(=O)/C(=C/C(C)=C/c3ccccc3)SC2=S)cc1,-3.5%
Fc1ccc(-c2ccc(Nc3cccc(F)c3)nn2)cc1,34.9%[activator]
CC[C@]12c3[nH]c4ccc(Cl)cc4c3CCN1C(=O)[C@@H](CC(=O)NC(C)(C)C)C[C@@H]2C(=O)N1CCN(C(=O)c2ccco2)CC1,-26.5%
N#C/C(=C\c1ccc(F)cc1)c1nc(-c2ccco2)cs1,12.0%
Cn1nc(-c2ccc(OCC(N)=O)cc2)c2ccccc2c1=O,1.6%
COCCN(CCNC(=O)c1ccc(NC2=NC3CS(=O)(=O)CC3S2)cc1)Cc1ccco1 (centres undefined),0.9%
CCN(CC)S(=O)(=O)c1ccc2oc(C(=O)NC3CC3)c(C)c2c1,-4.6%
CCCCN1CCCc2cc(CN(CCCN3CCOCC3)C(=O)Nc3ccc(OCC)cc3)ccc21,22.4%
Cc1c(-c2ccccc2)sc(N)c1C(=O)N1CCOCC1,-4.3%
O=C(O)c1ccc2c(c1)N(Cc1ccc(F)cc1)C(=O)c1ccccc1S2,-25.6%
COC(=O)CN(n1cnnc1)S(=O)(=O)c1ccccc1,19.1%
CCc1nn(CC(=O)Nc2cc(C)cc(C)c2)c(=O)c2cc3sccc3n12,-1.7%
COc1ccc(CNC(=O)COC(=O)c2ccc(F)c(S(=O)(=O)N3CCOCC3)c2)cc1,6.2%
Cc1ccc2oc(C(=O)Nc3ccc(S(=O)(=O)Nc4onc(C)c4C)cc3)c(C)c2c1,-7.9%
COc1ccc(-n2c(=O)cnc3cnc(N4CCOCC4)nc32)cc1,-20.0%
CCC(=O)NC(c1cccc([N+](=O)[O-])c1)c1c(OC(C)=O)ccc2ccccc12 (centres undefined),2.1%
CCOC(=O)CNC(=O)N1CCCC(CCC(=O)NCc2ccc(F)c(F)c2)C1 (centres undefined),-3.2%
O=C(Nc1ccc(NC(=O)c2cccs2)cc1)c1ccco1,0.5%
CC(C)Nc1ccc(-c2nc(-c3ccccn3)no2)cc1[N+](=O)[O-],-6.3%

(continued)
mol	VDR inhibitor
COc1ccc(CCNC(=O)CNS(=O)(=O)c2ccc(F)c(Cl)c2)cc1OC	-17.0%
O=C(Nc1ccc(Cl)c(-c2nc3ccccc3[nH]2)c1)c1ccc2c(c1)OCO2	-12.6%
CC(=O)Nc1cccc(C(=O)OCN2C(=O)c3ccccc3C2=O)c1	-1.6%
COc1ccccc1CNC(=O)CSc1ncc(S(=O)(=O)c2ccc(C)c(Cl)c2)c(=O)[nH]1	6.7%
CCCCNC(=O)c1nn2cc(Br)cnc2c1Br	2.7%
Cc1nn(-c2ccccc2)c(C)c1/C=N/N1CCN(c2ccccc2)CC1	-2.4%
CCN(C(=S)NC(=O)C1CCCC1)C1CCCCC1	-3.4%
COc1ccc(-c2nc(N)ncc2-c2ccccc2)c(O)c1	1.1%
Cc1cc(C)cc(-n2cc[nH]c2=S)c1	3.2%
CCOC(=O)CC1(CC(=O)OCC)NC(=O)c2c(C)sc(C(=O)OCC)c2N1	6.3%
COC(C/C=C\[C@H](O)COCc1ccccc1)OC	-5.0%
COc1cccc(CNC(=O)COC(=O)CN2C(=O)NC3(CCCCC3C)C2=O)c1 (centres undefined)	-10.0%
O=C(COC(=O)CCc1nc2ccccc2c(=O)[nH]1)Nc1ccc(N2CCOCC2)cc1	15.8%
Cc1ccc(NC(=O)C2CCN(S(=O)(=O)c3ccc4c(c3)OCCCO4)CC2)nc1	-9.0%
N#C/C(=C\c1ccccc1)C(=O)N1CCC(C(N)=O)CC1	-10.7%
Cc1cccc(C(=O)NCCc2n[nH]c(=S)n2C)c1	-12.5%
O=C(NCCc1cccnc1)C1CCC(=O)N(CCc2cccc(F)c2)C1 (centres undefined)	-3.4%
CC(CCc1ccc(O)cc1)NC(c1ccccc1)c1ccc(Cl)cc1 (centres undefined)	28.9%
COc1cccc(COC(=O)C2CCN(S(=O)(=O)c3ccc(C)cc3)CC2)c1OC	-0.9%
COc1ccc2c(c1)O/C(=C\c1ccccc1O)C2=O	-15.5%
CC(NC(=O)c1ccc(-c2cc(C(F)(F)F)ccc2Cl)o1)c1ccccc1 (centres undefined)	10.8%
O=C(CCc1nnc(CCCCc2ccccc2)o1)NCc1cccc(F)c1	-4.9%
Cn1cnc([N+](=O)[O-])c1Sc1ccccc1	9.1%
Cc1cc(C(=O)Nc2ccc3ccccc3c2)c(C)o1	2.6%

Among those listed so far, these contain a cyano group.
mol	VDR inhibitor
Cc1ccccc1C(=O)Nc1cccc(C#N)c1	-7.1%
N#C/C(=C\c1ccc(F)cc1)c1nc(-c2ccco2)cs1	12.0%
N#C/C(=C\c1ccccc1)C(=O)N1CCC(C(N)=O)CC1	-10.7%

Going on with the list:
mol	VDR inhibitor
Cc1ccc(C(=O)Oc2ccc(/C=C3\C(=N)N4N=C(N5CCOCC5)SC4=NC3=O)cc2)cc1	-27.0%
Cc1ccc(NC(=O)Cn2cc(C(=O)C3CCCCC3)c3ccccc32)cc1	13.2%
COc1ccc(C(=O)C2CCCN(S(=O)(=O)c3ccccc3F)C2)c(C)c1 (centres undefined)	-4.0%
O=C(Nc1sc2c(c1C(=O)NCc1ccccc1)CCCC2)c1cc(=O)c2ccccc2o1	-13.9%
Cc1cccc(N2C(=O)CS(=O)(=O)C23C(=O)N(C)c2ccccc23)c1 (centres undefined)	4.1%
CCCN(CCC)CCCNC(=O)c1cc2c(=O)n(C)c3ccccc3c2s1	-4.6%
CC(=O)NCCCc1nc2ccccc2n1Cc1c(F)cccc1Cl	-5.9%
NNC(=O)c1cc(O)c(O)c(O)c1	-7.5%
CCC(=O)Nc1ccccc1-c1nc2ccccc2n(C(CC)C(=O)Nc2cccc(Cl)c2)c1=O (centres undefined)	7.2%
C=CCC(NCc1ccccc1)c1ccco1 (centres undefined)	3.3%
COc1ccc(N2C(=NC(=O)CCCc3ccccc3)SC3CS(=O)(=O)CC32)cc1 (centres undefined)	14.9%

The list is partial; rates above refer to the full screens.
